rRNA inh HTS: inhibitors of bacterial rRNA selective over humanized ribosomes | GFP signal change (wild-type ribosome), % (test concentration not listed) | 350,000 tested, 1.6% active | E. coli WT GFP vs humanized-ribosome RFP mutants, fluorescence, 24 h; stronger effect = lower value; DMSO median 0, no signal -100;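 active = significant combined selectivity score with lowered wild-type GFP, culture density cut under 30%, mutant RFP and density less affected; inactive = any of these conditions unmet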; also: one replicate is shown; some compounds called inactive have numbers as strong as hits
A1 inh: inhibitors of the anti-apoptotic protein A1, read as caspase activation; MEF A1-2A-BIM cells, Caspase-Glo 3/7 luminescence, 3 h; percent of clofoctol response, vehicle zero; caspase activation, % (no concentration beside the values); 330,000 tested, 0.066% active; AID 2462;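 active = over half of replicate activation scores above 10%, or exactly half above 10 with the replicate mean above 10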;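 also: wells of about 30 µL received 50 nL stock; many hits fall short of the cut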
Ecoli growth: E. coli growth inhibition; OD600 absorbance (concentration not given with the values); Escherichia coli growth, OD600, 23 h; stronger effect = lower value; 330,000 tested, 0.21% active;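 active = OD600 absorbance below the run mean of sample wells minus 3.6 SD, in any replicate, cut at about 0.56 in these data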;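 also: stock transfer was 300 nL into about 60 µL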
UCH37 inh: human UCH37 deubiquitinating enzyme inhibition | 330,000 tested, 0.33% active | Q9Y5K5 | inhibition, % (no concentration beside the values) | AID 588478 | purified proteasome/UCH37, Ub-AMC cleavage fluorescence;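 active = mean of two replicates above 20%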;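 also: 0% = compound-free wells with enzyme and 100% = wells lacking proteasome; stock transfer was 100 nL into about 20 µL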
Target sequence (Q9Y5K5 whole entry, looked up): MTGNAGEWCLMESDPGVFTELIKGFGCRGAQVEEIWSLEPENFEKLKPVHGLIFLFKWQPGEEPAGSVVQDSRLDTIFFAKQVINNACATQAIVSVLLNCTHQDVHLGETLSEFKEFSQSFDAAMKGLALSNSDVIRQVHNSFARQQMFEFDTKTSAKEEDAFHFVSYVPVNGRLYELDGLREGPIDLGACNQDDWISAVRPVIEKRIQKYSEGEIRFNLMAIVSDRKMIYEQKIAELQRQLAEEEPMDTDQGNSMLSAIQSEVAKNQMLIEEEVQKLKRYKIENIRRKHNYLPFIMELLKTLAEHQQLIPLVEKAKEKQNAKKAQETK
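Material: human UCH37 enzyme supplied as purified proteasome complex / Amount: 0.15 nM proteasome as dispensed / Buffer or medium: pH 7.4 Tris-HCl (50 mM) with ovalbumin, ATP-MgCl2, DTT / Times: preincubation 30 min, reaction 25 min, room temperature / Technique: AMC fluorescence from Ub-AMC cleavage, excitation 355 nm, emission 460 nm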
Beta apoptosis: beta cell apoptosis inhibition | INS-1E cytokine-induced death, ATP luminescence, 48 h; percent of positive-control rescue, neutral wells zero | 300,000 tested, 0.8% active | protection from apoptosis, % (concentration not given with the values);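 active = all replicates at 75% or more, or half of them and the mean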;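 also: 0% = cytokine-treated negative control wells and 100% = positive control rescue; higher means more ATP so stronger rescue from cytokine killing; wells of about 40 µL received 100 nL stock; the first replicate is given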
FGF22 binding: shifts melting point of recombinant human FGF22; Q9HCT0; recombinant FGF22 thermal shift, SYPRO orange fluorescence; percent of sucrose octasulfate shift, DMSO zero; calls only at 9.99 µM; 340,000 tested, 1.5% active; AID 651658;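 active = melting point raised past a set limit in the mean and every replicate; three in four hits are not shown here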
Target sequence (Q9HCT0 whole entry, looked up): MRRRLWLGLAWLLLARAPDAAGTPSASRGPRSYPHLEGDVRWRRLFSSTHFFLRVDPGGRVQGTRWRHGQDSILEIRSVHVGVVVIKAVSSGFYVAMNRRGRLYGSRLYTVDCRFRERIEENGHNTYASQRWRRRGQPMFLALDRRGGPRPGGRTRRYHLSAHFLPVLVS
T cruzi inh: blocks replication of Trypanosoma cruzi; AID 1885; inhibition, % (test concentration not listed); T. cruzi beta-gal in NIH3T3, luminescence, 90 h; 300,000 tested, 1.4% active;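 active = mean inhibition across valid replicates above about 55%, limit read from the data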;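 also: signal also drops with host cell toxicity which is not excluded here; 0% = plate median of DMSO wells and 100% = zero luminescence signal; higher percent means less beta-gal luminescence so fewer parasites; stock transfer was 50 nL into about 50 µL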
MLL AF4-AF9 inh: MLL-AF4/AF9 protein interaction inhibition. AlphaScreen, biotin-AF4 peptide binding to FLAG-AF9. P42568. inhibition, % at 10 µM. AID 651704. 350,000 tested, 0.47% active;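 active = every replicate reaching a set inhibition limit, whatever the replicate mean, cut at about 25% in these data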;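 also: 0% = plate neutral control median and 100% = total signal loss; the record names both 10 and 1 µM as test concentration; the first replicate is given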
Target sequence (P42568 whole entry, looked up): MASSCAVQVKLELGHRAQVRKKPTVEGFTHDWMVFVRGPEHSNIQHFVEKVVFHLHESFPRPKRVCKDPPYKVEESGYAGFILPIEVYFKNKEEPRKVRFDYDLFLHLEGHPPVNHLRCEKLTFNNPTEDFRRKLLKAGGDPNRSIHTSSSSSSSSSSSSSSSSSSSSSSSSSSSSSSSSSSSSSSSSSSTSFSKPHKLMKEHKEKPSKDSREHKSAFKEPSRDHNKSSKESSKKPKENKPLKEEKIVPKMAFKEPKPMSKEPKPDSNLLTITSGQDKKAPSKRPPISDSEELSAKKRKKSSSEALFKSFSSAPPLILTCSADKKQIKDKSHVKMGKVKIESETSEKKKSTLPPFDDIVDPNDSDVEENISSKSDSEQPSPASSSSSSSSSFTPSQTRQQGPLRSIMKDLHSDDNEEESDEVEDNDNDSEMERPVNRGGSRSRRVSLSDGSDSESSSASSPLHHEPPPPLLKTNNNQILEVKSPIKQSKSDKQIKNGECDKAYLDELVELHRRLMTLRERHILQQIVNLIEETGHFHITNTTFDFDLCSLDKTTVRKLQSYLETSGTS
rRNA inh HTS OD600: recorded beside rRNA inh HTS, whose call it bears; OD600 change, %; measured here: OD600 growth;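 optical density of the mix in the first replicate; 0 = DMSO median and -100 = no signal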
rRNA inh HTS RFP: further read-out of rRNA inh HTS, marked with its call; RFP signal change, %; measured here: RFP humanized mutant strains;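 first replicate; 0 = DMSO median and -100 = no signal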
Active calls of the source: *; i = inactive; / = no result given.

SMILES	rRNA inh HTS	rRNA inh HTS OD600	rRNA inh HTS RFP	A1 inh	Ecoli growth	UCH37 inh	Beta apoptosis	FGF22 binding	T cruzi inh	MLL AF4-AF9 inh
O=C(Nc1cccc(C(F)(F)F)c1)C(=O)N1CCCCC1	4	4	-2.4	-0.7	0.65	1.9	/	i	4	-2.2
O=C(Cc1cccc([N+](=O)[O-])c1)Nc1ccc(C(=O)N2CCCCC2)cc1	-3	-9	-10	-1.2	0.69	2.3	-5	i	/	6.5
CC(=O)c1ccc(OCC(=O)Nc2ccccc2C(=O)NC2CC2)cc1	4	11	-2.6	0.5	0.71	-2.0	-3	i	-11	0.2
O=C(CN1C(=O)c2ccccc2C1=O)Nc1nnc(C2CCCO2)s1 (centres undefined)	10	6	-10	-0.1	0.7	0.9	1	i	-18	-71
CCS(=O)(=O)N1CCN(S(=O)(=O)c2ccc(Cl)s2)CC1	12	15	5.9	0.3	0.72	1.0	-1	i	-10	0.0
CCCCS(=O)(=O)N1CCCC(C(=O)Oc2ccccc2OC)C1 (centres undefined)	-12	-8	-4.1	0.3	0.66	1.4	-6	i	-6	-1.8
CCCCNC(=O)N(O)C1N(/N=C/c2ccccc2O)C(=S)SC1(C)C (centres undefined)	-3	-11	1.4	0.6	/	/	7	i	11	9.9
CCCCNC(=O)N1CCN(Cc2cccc(F)c2)CC1	/	/	/	0.3	0.68	2.7	2	/	-9	/
COc1ccccc1-n1cnnc1SCC(=O)Nc1nc(C)c(Cl)cc1Cl	/	/	/	-0.9	0.7	0.8	-3	/	-8	/
COc1ccc(OC)c2sc(NC(=O)c3ccc(S(=O)(=O)N(C)C)cc3)nc12	1	3	-4.8	1.0	0.73	1.4	17	i	0	-1.4
N=C(N)SCc1ccc(O)c([N+](=O)[O-])c1	7	5	-1.5	0.6	0.72	6.1	1	i	-13	-0.5
CCC12CN3CCN(CC(C3)/C1=N\NC(=O)c1ccc(Cl)cc1)C2	10	8	-0.4	-0.7	/	/	-4	/	10	-2.2
O=C(CS(=O)(=O)c1ccccc1)Nc1nnc(-c2cccs2)o1	9	8	-2.8	0.0	0.7	3.2	/	i	24	-0.7
O=C(CN1C(=O)NC2(CCOc3ccccc32)C1=O)c1ccc(Cl)s1 (centres undefined)	-32*	-17*	4.5*	-0.4	0.71	2.5	-7	i	/	-0.1
Cc1ccc(/C=N/NC(=S)NC2CCS(=O)(=O)C2)cc1 (centres undefined)	0	0	-2.3	0.3	/	/	0	i	0	-59
CC1CCC2(CC1)NC(=O)N(CC(=O)N1CCN(C(=O)c3cccs3)CC1)C2=O (centres undefined)	5	5	0.5	-0.6	0.63	0.7	1	i	/	1.7
O=C(CCN1C(=O)/C(=C/c2ccc(F)cc2)SC1=S)Nc1cc([N+](=O)[O-])ccc1O	3	8	2.7	0.4	0.77	3.9	3	i	10	1.3
COc1ccc(N2CCN(Cc3cc(=O)c(OCC(=O)Nc4ccccc4)co3)CC2)cc1	19	13	1.0	-0.8	0.71	-2.1	/	i	-11	-0.1
CCC(C)NC(=O)CN(c1ccc2c(c1)OCO2)S(=O)(=O)c1c(C)n[nH]c1C (centres undefined)	1	8	0.5	2.2	0.75	4.1	/	i	-8	-6.3
COc1ccc(NC(=S)Nc2ccccc2C(F)(F)F)cc1	18	10	0.7	0.3	0.65	2.4	-4	i	-21	0.5
CC1CN(C(=O)COC(=O)c2cnc(Cl)c(Cl)c2)CC(C)O1 (centres undefined)	16	14	2.9	-0.8	0.72	-0.3	3	i	/	6.2
O=C(CN1CCN(S(=O)(=O)c2ccc(F)cc2)CC1)Nc1ccnn1C1CCCC1	3	0	1.0	/	0.66	-1.1	/	/	/	0.0
Cc1ccc(-c2noc(CCCN3C(=O)c4ccccc4C3=O)n2)cc1	/	/	/	-0.7	0.74	1.0	/	/	-5	/
CCOC(=O)c1ccc2c(c1)nc(SCC(=O)N1CCCCC1)n2CC	/	/	/	0.0	0.75	2.5	4	/	-9	/
Cc1cccc(OCC(O)CN2C(C)(C)CC(O)CC2(C)C)c1 (centres undefined)	/	/	/	1.9	0.75	0.3	-11	/	-1	/
(next part)
SMILES	rRNA inh HTS	rRNA inh HTS OD600	rRNA inh HTS RFP	A1 inh	Ecoli growth	UCH37 inh	Beta apoptosis	FGF22 binding	T cruzi inh	MLL AF4-AF9 inh
CCc1sc(C(=O)N2CCc3cc(OC)c(OC)cc3C2CC(=O)O)cc1C (centres undefined)	/	/	/	-0.3	0.68	0.6	1	i	/	-2.2
CC1CCN(C(=O)CCc2nnc3ccc(NCCCN4CCCC4=O)nn23)CC1	3	16	0.7	1.3	0.7	2.3	-8	i	-3	-1.0
COc1ccc(CN2C(=NC(=O)C3CCCO3)SC3CS(=O)(=O)CC32)cc1 (centres undefined)	2	6	-2.9	-0.1	0.66	5.0	-2	i	-21	-3.4
Cc1ccc(C(=O)OCC(=O)Nc2ccc3c(c2)OCCO3)cc1C	13	11	0.5	/	0.68	0.5	/	i	/	-0.7
c1ccc(CN2CCC3(CCCc4ccccc43)CC2)cc1	-11	-34	1.9	0.8	0.64	2.6	0	i	/	8.9
CCn1c(NCc2cc(OC)ccc2OC)nc2ccccc21	/	/	/	0.7	0.71	-0.9	-4	/	-52	/
COc1ccc(Cl)cc1-n1c(C)cc(C(=O)OCC(=O)N2CC(=O)Nc3ccccc32)c1C	/	/	/	-0.5	0.67	-1.8	9	/	3	/
Cn1c(=O)cc(OCC(=O)Nc2ccccn2)c2ccccc21	/	/	/	0.0	0.7	2.9	-19	/	-12	/
CCN(CC)c1ccc(N2C(=O)/C(=C\c3cccs3)SC2=S)cc1	/	/	/	-0.4	0.84	9.0	6	/	7	/
Cc1cccc(CCNS(=O)(=O)c2ccc3c(c2)CCN3C(=O)CCC(=O)O)c1	/	/	/	-0.2	0.65	4.3	-3	/	-6	/
O=C(c1cc(-c2ccccc2Cl)nc2ccccc12)N1CCN(c2ccccn2)CC1	3	7	-1.1	1.2	0.7	-1.5	98*	/	/	/
COc1cc(/C=N/Nc2nc3ccccc3s2)cc([N+](=O)[O-])c1O	-7	-1	9.2	-1.0	/	/	-1	i	-2	3.7
N#Cc1cccc(CN2CCC(=O)N([C@H](CO)c3ccccc3)CC2)c1	6	20	0.3	0.5	/	2.0	0	i	-6	0.0
O=C(NNC1CC(=O)N(c2ccc(Cl)cc2)C1=O)c1ccccc1Cl (centres undefined)	10	6	0.4	0.5	0.66	2.0	-8	i	-1	-3.2
CCN1CCN(CC(=O)Nc2sc3c(c2C#N)CCC3)CC1	-5	0	-0.8	-0.7	0.64	3.3	-4	i	2	1.2
O=c1c2c(-c3ccc([N+](=O)[O-])cc3)ccnc2[nH]n1-c1ccccc1	17	12	1.7	-3.6	0.7	7.5	/	i	-8	-2.8
O=S(=O)(Nc1nc2ccccc2nc1Nc1cccc(S(=O)(=O)N2CCCCC2)c1)c1ccccc1	6	-4	7.9	-0.6	/	-13	57	i	-48	2.7
COc1ccc(/C=C/C(=O)OCC(=O)Nc2cc(C(N)=O)cc(C(N)=O)c2)cc1	13	12	6.4	-0.3	/	/	1	i	4	-1.2
Cc1ccc(CNC(=O)C2CCC(=O)N(CCc3ccccc3)C2)s1 (centres undefined)	-2	6	0.5	0.9	0.66	1.2	-7	i	0	-2.1
Clc1cccc(OCc2nc(-c3ccncc3)no2)c1	-13	-11	2.6	0.2	0.69	2.5	-2	i	21	-1.0
COc1ccc(/C=N/NC(=O)c2ccco2)cc1COc1ccc(F)cc1	2	13	3.1	0.7	/	/	4	i	4	0.3
O=C(NCc1ccc(F)cc1)c1ccc(S(=O)(=O)Nc2cccc(C(F)(F)F)c2)cc1	/	/	/	-0.2	0.69	4.4	10	/	-28	/
CCSc1cc(C2C(C#N)=C(N)OC(C)=C2C(=O)OC)c(C)o1 (centres undefined)	/	/	/	0.1	0.71	-0.9	1	/	-2	/
Cc1onc(C(=O)N2CCN(c3ccccc3F)CC2)c1-c1ccccc1Cl	/	/	/	0.3	0.71	4.2	-9	i	-17	0.9
Cc1cc(NC(=O)c2cc(-c3ccc(OC(C)C)cc3)nc3ccccc23)no1	4	11	-2.6	0.6	0.64	-216	10	i	39	-4.0

A draw from above in order of heavy-atom count, high to low.
SMILES	rRNA inh HTS	rRNA inh HTS OD600	rRNA inh HTS RFP	A1 inh	Ecoli growth	UCH37 inh	Beta apoptosis	FGF22 binding	T cruzi inh	MLL AF4-AF9 inh
CC1CCN(C(=O)CCc2nnc3ccc(NCCCN4CCCC4=O)nn23)CC1	3	16	0.7	1.3	0.7	2.3	-8	i	-3	-1.0
Cc1cccc(CCNS(=O)(=O)c2ccc3c(c2)CCN3C(=O)CCC(=O)O)c1	/	/	/	-0.2	0.65	4.3	-3	/	-6	/
COc1ccc(/C=N/NC(=O)c2ccco2)cc1COc1ccc(F)cc1	2	13	3.1	0.7	/	/	4	i	4	0.3
Cn1c(=O)cc(OCC(=O)Nc2ccccn2)c2ccccc21	/	/	/	0.0	0.7	2.9	-19	/	-12	/

Next structures follow.
SMILES	rRNA inh HTS	rRNA inh HTS OD600	rRNA inh HTS RFP	A1 inh	Ecoli growth	UCH37 inh	Beta apoptosis	FGF22 binding	T cruzi inh	MLL AF4-AF9 inh
COc1ccc(NC(=O)Nc2cnccn2)c(OC)c1	1	12	-2.0	0.0	0.69	3.5	-3	i	-1	1.0
O=C(NC1CCN(Cc2ccccc2)CC1)C1CCCN(c2nnc(-n3cccc3)s2)C1 (centres undefined)	2	7	16	-0.5	/	0.3	2	i	31	5.9
CC(=O)N1c2ccc(Cl)cc2C2OCCC2C1c1ccco1 (centres undefined)	-3	-9	2.2	0.7	0.68	3.5	-2	i	-13	-3.3
COC(=O)c1cc(Cn2nc(C(=O)O)c3ccccc3c2=O)oc1C	8	4	3.6	-0.5	0.68	0.4	0	i	-6	-0.3
C=CCNC(=O)Nc1ccc(OCC)cc1	/	/	/	-1.6	0.66	1.1	-11	/	-5	/
CC(C(=O)N1CCN(C=O)CC1)N1C(=O)c2ccccc2C1=O (centres undefined)	/	/	/	2.2	0.77	1.1	-1	/	-8	/
Cc1cc(=O)oc2cc(NC(=O)c3cc([N+](=O)[O-])ccc3N3CCOCC3)ccc12	5	-2	-4.0	0.9	0.75	-49	6	i	18	-0.6
CC(C)(C)c1ccccc1OCCOCCNCc1ccccc1	/	/	/	1.2	0.68	5.2	1	i	23	3.9
COc1ccccc1C(=O)Nc1ccnn1C1CCN(CC2CC=CCC2)CC1 (centres undefined)	0	9	-2.1	-0.2	/	/	1	i	11	0.1
O=S(=O)(Nc1cccc(-c2ccc3nncn3n2)c1)c1ccc(Cl)s1	4	-3	1.8	-0.2	0.72	0.0	-8	i	8	-3.4
CCN1CCN(c2ccc(NC(=O)c3cc(S(=O)(=O)N4CCCC4)ccc3Cl)cc2)CC1	7	4	-2.5	-0.9	0.65	2.2	0	i	/	8.9
O=C(CP(=O)(c1ccccc1)c1ccccc1)Nc1nc2ccc(Cl)cc2s1	0	-19	-1.3	0.5	0.71	-0.1	/	i	21	-1.1
CCCC(=O)NC(=S)Nc1ccccc1N1CCOCC1	/	/	/	1.7	0.7	6.4	6	i	-9	-3.1
CCOC(=O)C1CCN(C(=O)c2ccc3c(=O)n4c(nc3c2)CCCCC4)CC1	6	4	-1.2	-0.1	0.7	0.6	0	i	6	3.9
C=CCn1c(COc2cccc(C)c2C)nnc1SCC(=O)N1CCN(c2ccccc2)CC1	-41	-67	20	-0.2	0.69	-0.9	2	i	12	1.8

A portion of the library; count on the stated rates, not on these rows.
